Screening results: PubChem BioAssay, Southern Research Institute
Mtb H37Rv: Mycobacterium tuberculosis H37Rv growth inhibition, cell based, confirmatory dose response (AID 1949); most inactive calls were filed without a number and no value below 0 was filed; inhibition, % at 10 µg/mL, or IC50 in µg/mL where a hit was titrated; 1.6% of 100,000 active;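 active = confirmed in a dose series; inconclusive = about 50% or more but not retested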;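 also: bacteria grown 7 days with compound before Alamar blue readout; 0% = untreated bacteria and 100% = reference antibiotic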
* marks the source's active call; other numbers are inactive results; i = inactive; ? = inconclusive. This is a subset; the hit share may differ from the screen's.

SMILES	Mtb H37Rv
COC(=O)C(C(=O)Nc1cccc(C)n1)C1CCCC1 (stereo unspecified)	i
COc1cc(NC(=O)COc2cccc(Br)c2)c(OC)cc1Cl	i
O=C(CSc1ccc2ccccc2n1)c1ccc2c(c1)OCCO2	i
COc1ccc(S(=O)(=O)N(CC(=O)N2CCN(c3cccc(Cl)c3)CC2)c2ccccc2)cc1OC	i
COc1cc(C=NN2CCN(C3c4ccccc4-c4ccccc43)CC2)cc(OC)c1OC(C)=O	i
COC(=O)c1ccccc1NC(=O)c1ccccc1NS(C)(=O)=O	i
COc1ccc(C(=O)Oc2cc3oc(=O)cc(-c4ccccc4)c3cc2Cl)cc1	i
COc1ccc(C(=O)Nc2nc(-c3ccc(F)cc3)c(C)s2)cc1Br	i
Cc1ccc([N+](=O)[O-])cc1-n1c(C)cc(C=O)c1C	i
COc1ccccc1CCNC(=O)c1cnn2c(C(F)F)cc(C)nc12	i
Cc1nc(=O)c(-c2ccccc2)c(C)n1-c1ccc(C(=O)O)cc1	0%
O=C1CCCN1CCCNC(=S)NCc1ccco1	i
Cc1c(NC(=O)CN(c2ccccc2Br)S(C)(=O)=O)c(=O)n(-c2ccccc2)n1C	i
Cc1coc2cc3oc(=O)c(Cc4ccccc4)c(C)c3cc12	i
O=c1oc2cc(OCc3ccc(F)cc3)c(Cl)cc2c2c1CCCC2	?
COc1ccc(NC(=S)Nc2ccccc2OC)c(OC)c1	i
COc1ccc(-c2cc(C(=O)OCc3ccc([N+](=O)[O-])cc3)c3ccccc3n2)cc1	6%
Cc1nnc(SCc2cccs2)[nH]c1=O	i
Cc1cc(I)ccc1NC(=O)CSc1cccs1	i
CCC(=O)c1ccc(OCC(O)CN2CCN(c3ccccn3)CC2)cc1 (stereo unspecified)	5%
O=C(CNS(=O)(=O)c1ccc(Br)cc1)NCC1CCCO1 (stereo unspecified)	i
O=C1CC(Cc2ccccc2)C(=O)N1c1cccc(O)c1 (stereo unspecified)	i
CCC(C(=O)Nc1cc(C(=O)OC)cc(C(=O)OC)c1)c1ccccc1 (stereo unspecified)	i
CC(C)Cn1c(-c2ccccc2)n[nH]c1=S	0%
COCCCNC(=O)c1ccccc1SC	1%
CC(=O)c1ccc(N2CCN(C(=O)c3ccccc3F)C(C)C2)c(F)c1 (stereo unspecified)	i
CCCN1C(=O)c2cccc3c(N4CCCCC4)ccc(c23)C1=O	3%
CS(=O)(=O)N(CC(=O)N1CCC(C(N)=O)CC1)c1ccc(Cl)c(C(F)(F)F)c1	i
O=C(NCCCN1CCCC1=O)c1cccnc1	i
Cc1cccc(C)c1NC(=O)C1CCCN(CCCc2ccccc2)C1 (stereo unspecified)	i
O=C1CCC(=O)N1c1ccc(Oc2ccc(Br)cc2)cc1	i
Cn1c(COc2ccccc2)nnc1SCC(=O)Nc1ccc(N2CCOCC2)c(Cl)c1	i
CSc1nc(=S)n(-c2cc(C)ccc2C)c(C)c1C(C)=O	i
NC(=O)Cc1nc(-c2ccccc2)cs1	1%
CCCCC(=O)Nc1cccc(NC(=S)NC(=O)c2ccc(Br)cc2)c1	i
CNC(=O)CN(c1cccc(C(F)(F)F)c1)S(C)(=O)=O	i
COc1ccc(Cl)cc1N(CC(=O)N1CCC(C(N)=O)CC1)S(C)(=O)=O	6%
CC1CN(CCOc2ccccc2-c2ccccc2)CC(C)O1 (stereo unspecified)	4%
COc1ccc(-c2cc(C(=O)NCc3ccco3)c3ccccc3n2)cc1OC	i
CCC(C)C(=O)N1CCN(c2cccc(Cl)c2)CC1 (stereo unspecified)	i
Cc1ccc(C(=O)NCc2ccco2)cc1Br	i
O=C(CCc1ccccc1)Oc1ccc(F)cc1	i
Cc1cc(C)c(C(=O)Nc2c(C)cc(C)cc2Cl)c(C)c1	?
CCOC(=O)c1cc(-c2ccc3c(c2)OCCO3)n[nH]1	i
Cc1ccc(S(=O)(=O)N(CC(=O)N2CCN(C)CC2)Cc2ccc(Cl)cc2)cc1	i
COc1cc(CO)ccc1OCC(=O)NC1CCCCC1	i
O=C(O)C1CC=C(Cl)CC1C(=O)Nc1ccccn1 (stereo unspecified)	i
CC(C)(C)c1ccc(S(=O)(=O)Nc2ccc(C(=O)NCc3ccco3)cc2)cc1	i
Cc1ccc(CC(=O)Nc2nnc(CC(C)C)s2)cc1	i
Cc1ccc(C(=O)O/N=C(\N)c2ccc(Br)cc2)c(C)c1	i
CCc1cc2c(=O)oc(-c3ccc(F)cc3)nc2s1	i
CC(=O)c1c(N2CCCCC2)nc(=S)n(Cc2ccccc2)c1C	i
COc1ccc(Cl)cc1N(CC(=O)Nc1ccc(S(=O)(=O)N2CCCCCC2)cc1)S(C)(=O)=O	i
Cc1ccc(-n2ncc3c2ncn2nc(COc4ccccc4C)nc32)cc1	i
CC(=O)c1cccc(NC(=O)CSc2nnc3c(n2)[nH]c2ccccc23)c1	i
CC(=O)Nc1ccc(C(=O)Nc2nc3c(C)cccc3s2)cc1	i
COc1ccccc1N(CC(=O)Nc1ccc(C)c(Cl)c1)S(=O)(=O)c1ccc(C)cc1	i
CC(=O)c1ccc(C(=O)NCc2ccco2)cc1	i
CC(C)(O)C#Cc1ccc(C(=O)N2CCN(Cc3ccccc3)CC2)cc1	i
CC(C)NS(=O)(=O)c1ccc(OCC(=O)Nc2ccc(Br)cc2F)c(Cl)c1	i
Additional entries.
SMILES	Mtb H37Rv
Cc1ccc(N(Cc2ccco2)C(=O)CNS(=O)(=O)c2ccc(C)cc2)cc1	i
CC1=C(C(=O)Nc2cc(C)ccc2C)C(c2ccc(F)cc2)NC(=O)N1 (stereo unspecified)	i
CCOC(=O)COc1c(Cl)cc(C=O)cc1OCC	i
CC(=O)c1sc(NC(=O)C(C)Oc2ccc3c(C)cc(=O)oc3c2)nc1C (stereo unspecified)	i
O=C(Nc1cc2nn(-c3ccccc3)nc2cc1Cl)c1cc(Cl)ccc1Cl	i
CC(C)(C)c1ccc(C(=O)Nc2sc3c(c2C(=O)NC2CCS(=O)(=O)C2)CCCC3)cc1 (stereo unspecified)	9%
CCOCCCNC(=O)c1ccc(NC(C)=O)cc1	i
CC(=O)c1c(C)nc(-c2ccc(F)cc2)n1O	i
O=C(NC1CCCCCC1)C(F)(F)F	i
CCSc1nc2ccccc2n1CC(=O)Nc1ccc([N+](=O)[O-])cc1	43%
CS(=O)(=O)N(CC(=O)N1CCN(Cc2ccc3c(c2)OCO3)CC1)c1cccc(F)c1	i
CC(C)(C)c1oc(C(=O)O)cc1CN1CCCC1	i
Cc1ccc(C(=O)NC(=S)NC23CC4CC(CC(C4)C2)C3)cc1C	i
COC(=O)c1ccccc1NC(=O)CN(c1cccc(F)c1)S(C)(=O)=O	i
COc1ccccc1OCCCC(=O)Oc1ccc(Br)cc1	i
O=C1C2CCCCC2C(=O)N1CC(=O)N1CCc2ccccc21 (stereo unspecified)	i
CCc1ccc2[nH]c(C)c(CN(C)C3CCCCC3)c(=O)c2c1	3%
CC(C)CN1C(=O)NC(NC(=O)C2CCCCC2)(C(F)(F)F)C1=O (stereo unspecified)	i
COc1ccc(CN(CCC(c2ccc(F)cc2)c2ccco2)C(C)=O)cc1 (stereo unspecified)	i
COc1ccc(/C=C(/C#N)S(=O)(=O)c2ccccc2)cc1COc1c(F)c(F)cc(F)c1F	i
COc1ccc(OC)c(N(CC(=O)Nc2cccc(C(F)(F)F)c2)S(=O)(=O)c2ccc(OC)c(OC)c2)c1	i
COc1cccc(OCCSc2nc(N)cc(N)n2)c1	2%
CC(C)NC(=O)CSc1nc2ccccc2c(=O)n1-c1ccccc1	i
COc1cccc(N(CC(=O)NCCC2=CCCCC2)S(=O)(=O)c2ccc(C)cc2)c1	i
Cc1cccc(N2C(=O)C3C4C=CC(C4=C4C5CC6CC(C5)CC4C6)C3C2=O)c1 (stereo unspecified)	i
COc1cc(CNC(C)(C)CO)cc(Br)c1OCc1ccc(F)cc1	i
CCc1c(C)sc(NC(=S)N2CCN(CC)CC2)c1C(=O)OC	16µg/mL*
O=S(=O)(NC1CC2CCC1C2)c1ccc2c(c1)OCCO2 (stereo unspecified)	i
Cn1c(SCC(=O)NC(c2ccccc2)c2ccccc2)nnc1-c1ccncc1	8%
CC(C)c1ccc(C(=O)NC(=S)Nc2ccc(C(=O)O)c(Cl)c2)cc1	i
Cc1sc(NC(=O)c2cccc(Cl)c2)nc1-c1ccc(Br)cc1	i
O=C(Nc1ccccc1C(=O)O)c1cccc(NC(=O)c2ccccc2Cl)c1	i
O=C(CSc1nc2ccc([N+](=O)[O-])cc2s1)Nc1ccc(Cl)cc1Cl	i
O=[N+]([O-])c1ccc(N2CCN(C(=S)Nc3ccccc3C(F)(F)F)CC2)cc1	i
COC(=O)c1ccc(C2NC(=S)NC(c3ccccc3)=C2C(=O)Nc2ccc(C)cc2)cc1 (stereo unspecified)	i
C#CCSc1nnc(-c2ccc(OC)cc2)o1	?
c1ccc(-c2ccc(OCCCN3CCNCC3)cc2)cc1	6%
Cc1ccc(F)cc1NC(=O)CSc1nnc(-c2ccccc2Cl)o1	2%
O=C(CCOc1ccccc1)Nc1nccs1	i
Cc1nnc(SCC(=O)NCc2ccc3c(c2)OCO3)n1-c1ccccc1	i
O=C(O)CCC(=O)Nc1sc2c(c1C(=O)Nc1cccc3ccccc13)CCCC2	i
COc1ccc(Cl)cc1NC(=S)Nc1ccc(S(=O)(=O)N2CCCC2)cc1	i
COc1ccccc1CNC(=O)c1ccc(N(Cc2ccc(C)cc2)S(C)(=O)=O)cc1	2%
Brc1cccc(-c2nn3c(Cc4ccccc4)nnc3s2)c1	i
COc1cccc(OCCOCCOc2ccccc2OC(C)C)c1	i
CCOC(=O)c1c(C)n(C)c2cccc(OC(=O)CN3C(=O)c4ccccc4C3=O)c12	i
CCCOc1cccc(C(=O)Nc2c(C)cccc2C)c1	i
Cc1cccc(-c2c3c(=O)n(C)c(=O)n(C)c3c3c(-c4cccnc4)nc4ccccc4n23)c1	i
O=C1c2ccccc2C(=O)N1CCCC(=O)n1ccc2ccccc21	i
O=C(Nc1cc(C(F)(F)F)ccc1Cl)c1ccccc1	i
COc1cc(NC(=S)Nc2ccccc2C(F)(F)F)c(OC)cc1Cl	i
O=C(CN1CCN(S(=O)(=O)c2ccc(F)cc2)CC1)Nc1ccc(F)cc1	i
CCCSc1nnc(CN2CCOCC2)n1C	i
COC(=O)c1c(NC(=O)c2ccc(C(C)(C)C)cc2)sc(C(=O)N(C)C)c1C	18%
Cc1cc(C)n(CC(O)COc2ccc3cc(Br)ccc3c2)n1 (stereo unspecified)	?
Cc1ccnc(NC(=O)c2ccc(N3C(=O)CCC3=O)cc2)c1	i
CC(Sc1nc2ccccc2c(=O)[nH]1)C(=O)Nc1ccc(Cl)cc1 (stereo unspecified)	i
COc1ccc(NC(=S)NC(=O)c2ccccc2F)c(OC)c1	i
Cc1cc(=O)n(CCc2ccccc2)c(O)c1C#N	i
COc1ccc(S(=O)(=O)N2CCN(c3cccc(C(F)(F)F)c3)CC2)cc1C	15%
The listing continues:
SMILES	Mtb H37Rv
Cc1cccc(C)c1OCC(=O)Nc1ccc(S(=O)(=O)N2CCCCC2)cc1	2%
Cc1nn2c(-c3ccccc3)csc2nc1=O	12%
CN(CC(=O)N1CCOCC1)S(=O)(=O)c1cc(Cl)ccc1Cl	i
CC(C)C1C(c2ccccc2)NC(c2ccccc2)CC1(O)C#Cc1ccccc1 (stereo unspecified)	9.2µg/mL*
O=C(O)CCn1c2ccccc2c2ccccc21	i
Nc1nc2ccc(N3CCOCC3)cc2s1	i
COc1ccc(C(=O)COc2cccc(NC(=O)c3ccccc3C)c2)cc1	2%
CCCOc1ccc(Br)cc1C=O	i
O=C(NC(=S)Nc1ccc(Br)c2ccccc12)c1ccc(Cl)cc1	0%
CC(=O)Nc1ccc(N2C(=O)CC(N3CCSCC3)C2=O)cc1 (stereo unspecified)	i
CCCc1cc(=O)n2[nH]c(NCc3ccccc3OC)nc2n1	i
Cc1ccc(N(Cc2c(O)ccc3ccccc23)C(=O)c2cccc([N+](=O)[O-])c2)cc1	12%
CCS(=O)(=O)NCCc1cccc(Cl)c1	i
COC(=O)Cc1c(C)c2ccc(OCc3c(Cl)cccc3Cl)c(C)c2oc1=O	i
COC(=O)c1cc(Br)ccc1NC(=O)c1ccncc1	i
O=C(CC1SCCNC1=O)Nc1ccc(Oc2ccccc2)cc1 (stereo unspecified)	0%
CCCCNC(=O)C(=O)NCCOC	0%

Molecules from the list above that have four or more nitrogen atoms (15):
SMILES	Mtb H37Rv
COc1ccccc1CCNC(=O)c1cnn2c(C(F)F)cc(C)nc12	i
Cc1c(NC(=O)CN(c2ccccc2Br)S(C)(=O)=O)c(=O)n(-c2ccccc2)n1C	i
Cn1c(COc2ccccc2)nnc1SCC(=O)Nc1ccc(N2CCOCC2)c(Cl)c1	i
Cc1ccc(-n2ncc3c2ncn2nc(COc4ccccc4C)nc32)cc1	i
CC(=O)c1cccc(NC(=O)CSc2nnc3c(n2)[nH]c2ccccc23)c1	i
O=C(Nc1cc2nn(-c3ccccc3)nc2cc1Cl)c1cc(Cl)ccc1Cl	i
CCSc1nc2ccccc2n1CC(=O)Nc1ccc([N+](=O)[O-])cc1	43%
COc1cccc(OCCSc2nc(N)cc(N)n2)c1	2%
Cn1c(SCC(=O)NC(c2ccccc2)c2ccccc2)nnc1-c1ccncc1	8%
O=[N+]([O-])c1ccc(N2CCN(C(=S)Nc3ccccc3C(F)(F)F)CC2)cc1	i
Cc1nnc(SCC(=O)NCc2ccc3c(c2)OCO3)n1-c1ccccc1	i
Brc1cccc(-c2nn3c(Cc4ccccc4)nnc3s2)c1	i
Cc1cccc(-c2c3c(=O)n(C)c(=O)n(C)c3c3c(-c4cccnc4)nc4ccccc4n23)c1	i
CCCSc1nnc(CN2CCOCC2)n1C	i
CCCc1cc(=O)n2[nH]c(NCc3ccccc3OC)nc2n1	i
